Sa growth 42C – S. aureus growth inhibition. AID 720641. S. aureus RN4220 growth, OD600, 20 h, 42 °C; hits give low values. relative growth, % (no concentration beside the values). 0.53% of 170,000 active;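 active = growth at 42 °C up to 50% and 20 or more points under that at 30 °C, or under 10% at both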;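 note: 300 nL library stock went into each well; scaled to the means of positive and negative controls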
HCMV UL50-53 inh – cytomegalovirus nuclear egress complex inhibition; HTRF UL50-UL53 interaction, normalized percent inhibition; inhibition, % (no concentration beside the values); AID 1918969; 0.15% of 190,000 active;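 active = both replicates at 50% or more, plus weaker picks with an unusually low signal ratio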;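 note: stock transfer was 100 nL into about 20 µL; 0% = negative control wells and 100% = wells with untagged competitor protein; inactives centre near -12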
GIV-Gai inh – GIV-Galpha-i interaction inhibition. P08753. Galpha-i3/FITC-GIV peptide fluorescence polarization, 90 min; hits give low values; scaled: aluminum fluoride 0%, vehicle 100%. percent of control (FP), % (test concentration not listed). 0.42% of 210,000 active. AID 1224905;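 active = replicate mean at 85% of control or lower, very high polarization wells dropped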;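 note: wells of about 15 µL received 100 nL stock; the first replicate is given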
Target sequence (P08753 whole entry, looked up): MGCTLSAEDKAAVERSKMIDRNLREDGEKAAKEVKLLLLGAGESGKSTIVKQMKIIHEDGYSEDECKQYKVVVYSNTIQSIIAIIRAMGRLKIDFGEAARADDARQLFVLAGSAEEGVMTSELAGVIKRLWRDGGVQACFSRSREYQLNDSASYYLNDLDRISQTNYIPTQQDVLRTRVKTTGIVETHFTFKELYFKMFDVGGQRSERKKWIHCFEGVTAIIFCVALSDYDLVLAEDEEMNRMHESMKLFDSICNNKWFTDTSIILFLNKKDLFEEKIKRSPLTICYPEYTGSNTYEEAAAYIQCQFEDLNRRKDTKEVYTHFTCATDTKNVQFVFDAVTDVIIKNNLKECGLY
Sa growth 42C second temp – recorded beside Sa growth 42C, whose call it bears; relative growth, %; measured here: growth at 30 °C;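 optical density after 20 h as mean of two plates; 100% = untreated growth and lower means inhibition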
An asterisk follows results filed as active; / = no result given; & = joins results of further samples.

SMILES	Sa growth 42C	Sa growth 42C second temp	HCMV UL50-53 inh	GIV-Gai inh
CC(C)c1nn2c(=O)cc(COC(=O)c3cccc(NC(=O)c4ccccc4F)c3)nc2s1	79	92	/	100
O=C(OCN1C(=O)c2ccccc2C1=O)c1cccnc1SC(F)F	98	91	17	/
COCCCN1C(=O)c2[nH]nc(-c3cc(C)ccc3O)c2C1c1ccc(F)cc1 (stereo not drawn)	111	90	-17&-16	101&109
COC(=O)C1=C(C)NC2=C(C(=O)CC(c3ccc(OC)c(OC)c3)C2)C1c1cc(OC)ccc1OC (stereo not drawn)	/	/	-21	108
O=C(CCCN1C(=O)S/C(=C\C=C\c2ccccc2)C1=O)Nc1ccc(C(=O)O)cc1	53	60	/	109
COC(=O)c1cc(NC(=O)c2cccc(Cl)c2)cc(C(=O)OC)c1	106	71	/	97
O=C(Nc1ccc2c(c1)OCO2)c1ccc(Nc2ccc(-c3ccccc3)nn2)cc1	/	/	-14	105
Clc1ccc(-c2ccc(CNc3nn[nH]n3)o2)c(Cl)c1	/	/	-22	109
COc1ccc(-c2nc(-c3cc4c(C)nn(-c5ccccc5)c4s3)no2)c(OC)c1	/	/	-21	103
FC(F)(F)c1cccc(-c2nnc(-c3ccc(Cl)cc3)o2)c1	95	81	-31	101
CCOC(=O)c1c(N)n(-c2cccc(OC)c2)c2nc3ccccc3nc12	89	102	/	114
CCOC(=O)c1cccc(NC(=O)c2cc(CN3CCOCC3)on2)c1	96	87	/	102
CCN(CC)S(=O)(=O)c1ccc2c(c1)nc(CN(C)C(=O)c1ccc(Cl)cc1)n2C	/	/	-4	111
CCOc1ccc(-n2c(=O)c3c(C)c(C)sc3n(CC(=O)C(C)(C)C)c2=O)cc1	98	103	-6	108
COCCNC(=O)CSc1nnc(-c2cc3ccccc3n2C)o1	/	/	-34	98
COc1ccc2c(c1)CCc1c(C(=O)N3CCC(C)CC3)noc1-2	/	/	-36	102
O=S(=O)(c1ccc(Cl)cc1)N(CCCN1CCOCC1)Cc1cccs1	119	75	-1	102
Cc1nn(C)c(C)c1CNC(=O)C1CCCN1c1nnc(N2CCCC2=O)s1 (stereo not drawn)	/	/	-18	99
CCOc1ccc(-c2cc3c(=O)n(CC(=O)NCc4ccc(OC)cc4)ccn3n2)cc1	82	86	/	103
O=S(=O)(c1ccccc1)N1C2C=CC(C2)C1(C(F)(F)F)C(F)(F)F (stereo not drawn)	99	91	/	98
Cn1c(-c2nnc(SCC(=O)NCc3nc4ccccc4n3C)o2)cc2ccccc21	/	/	12	98
CC1NC(C(=O)O)Cc2c1[nH]c1ccccc21 (stereo not drawn)	/	/	-12	105
COC(=O)c1ccc(Oc2ccc(Cl)cc2)nc1	92	90	-24	101
CC(C)NC(=O)CCc1nnc2n(Cc3ccccc3)c(=O)c3ccccc3n12	95	92	/	99
Cc1ccc(C)c(N2CCN(C(=O)CCn3c(=O)c4cccn4c4cccnc43)CC2)c1	71	81	/	105

Three entries drawn at random from those above, as already listed:
SMILES	Sa growth 42C	Sa growth 42C second temp	HCMV UL50-53 inh	GIV-Gai inh
COC(=O)c1cc(NC(=O)c2cccc(Cl)c2)cc(C(=O)OC)c1	106	71	/	97
CCOC(=O)c1c(N)n(-c2cccc(OC)c2)c2nc3ccccc3nc12	89	102	/	114
COC(=O)C1=C(C)NC2=C(C(=O)CC(c3ccc(OC)c(OC)c3)C2)C1c1cc(OC)ccc1OC (stereo not drawn)	/	/	-21	108

Later entries.
SMILES	Sa growth 42C	Sa growth 42C second temp	HCMV UL50-53 inh	GIV-Gai inh
CCc1ccc(NC(=O)c2c[nH]n3c(=O)cc(C)nc23)cc1	/	/	-5	98
O=C(O)CC1(CC(=O)Nc2ccc(-c3cn4c(n3)SCC4)cc2)CCCCC1	98	85	-26	105
Cn1ncc(C(=O)NC2CCCCC2)c1-n1cccc1	96	81	-13	96
C=CCc1cc(OC)cc(CC=C)c1O	95	82	-4	/
CCC(=O)N1CCc2cc(Br)cc(S(=O)(=O)CCC(=O)N3CCN(c4ccc(F)cc4)CC3)c21	103	108	6	101
COc1cc(CNS(=O)(=O)c2ccc(CN3C(=O)c4ccccc4C3=O)cc2)cc(OC)c1OC	89	83	-34	100
O=C(NCCN1CCOCC1)C(=O)NCc1n[nH]c(=O)c2ccccc12	/	/	-11	109
CC(=O)Nc1cc2nc(N)sc2cc1NC(C)=O	117	87	/	101
Cc1ccc(Cn2cnc3nc4c(cc3c2=O)CCCC4)cc1	82	86	/	105
Cc1cccc(N2CCN(C(=O)CCCN3C(=O)c4ccccc4Sc4ncccc43)CC2)c1C	96	102	-9&-176	109&101
C(=N\NC1=NCCCCC1)/c1ccccc1	115	85	-25	/
CCCNC(=O)CSc1nc(-c2cccs2)cc(C(F)(F)F)n1	97	86	/	104
O=C(O)CNC(=O)Cc1ccccc1	100	86	-15	104
COc1cn(CC(=O)Nc2ccc(C)cc2)c(CN2CCCCC2)cc1=O	141	91	/	105
COC(=O)c1cc(-c2ccco2)nc2c1cnn2Cc1ccc2c(c1)OCO2	66	98	-28	/
C=CCn1c(SCC(=O)N2CCCCC2)nc2sc3c(c2c1=O)CCCC3	/	/	-26	104
O=C1Nc2ccccc2Oc2ccc(S(=O)(=O)N3CCOCC3)cc21	104	91	-35	110
Cc1cn([C@H]2C=C[C@@H](CO)O2)c(=O)[nH]c1=O	105	97	-4&-37&-5	94&107
CC1=NN(c2ccccc2)C(=O)C1=C1SCCS1	102	87	-109	103
C=CCN(c1ccc(C(=O)N2CCCC2)cc1)S(C)(=O)=O	104	101	11	102
COc1ccc(CNC(=O)c2cc3c(=O)n(C)c4ccccc4c3n2C)cc1	107	94	-32	104
Nc1nc(CSc2ncccn2)nc(Nc2ccccc2)n1	97	90	-2	117
COc1ccc2cc(CNc3ccc(C)cc3)c(=O)n(CC(=O)Nc3ccc(OC)c(Cl)c3)c2c1	90	87	/	107
CCCS(=O)(=O)NCCc1c(C)nn(C)c1C	/	/	-27	102
COc1cccc(OC)c1SC	115	87	-30	102
CCOC(=O)N1CCN(C(=O)CNC(=O)Cn2cnc3sc4c(c3c2=O)CCCC4)CC1	/	/	-20	102
CCOC(=O)N/N=C1/c2ccccc2C2(O)NC(=O)NC12O (stereo not drawn)	79	74	-18	96
N#Cc1c(N)nc2sc(C(N)=O)c(N)c2c1-c1ccc(Br)cc1	/	/	-32	100
CC(C)CN(CC(C)C)C(=O)c1cc2c(=O)n3ccccc3nc2s1	82	88	/	104
CCN1CN=C(SCc2cccc(C#N)c2)NC1	87	93	-5	104
CCN(CC)CCNC(=O)c1c(C)oc2ncn(C)c(=O)c12	97	93	/	105
Cc1cc(C(=O)N2CCN(c3ccccc3F)CC2)n[nH]1	/	/	-9	101
CN(CCOC(=O)c1ccc2c(c1)OCCO2)Cc1ccccc1	/	/	-19	105
O=C(CCCc1nc2ccccc2s1)Oc1ccc2c(c1)OCO2	81	84	-41	/
CC(=O)Nc1ccccc1Sc1nc(Cl)nn1Cc1ccccc1	/	/	-13	96
CCOC(=O)C1=C(N)OC2=C(C(=O)CC(c3ccccc3)C2)C1c1ccc(Cl)c([N+](=O)[O-])c1 (stereo not drawn)	/	/	-6	106
CC(OC(=O)c1ccccc1NCc1ccco1)C(=O)Nc1ccc2c(c1)OCO2 (stereo not drawn)	88	99	-31	/
O=C(Cn1nnc(-c2cccs2)n1)N1CCCC1c1ccc2c(c1)OCCCO2 (stereo not drawn)	89	93	2	/
CCOC(=O)CSC1=C(C#N)C(c2ccc(Cl)cc2)C(C(=O)OC)C(=O)N1 (stereo not drawn)	110	71	/	103
CCOC(=O)c1c(NC(=O)c2ccc(Cl)c(Cl)c2)sc(C(=O)Nc2ccccc2F)c1C	/	/	-4	107
COc1nc(Nc2ccc(OC(F)(F)F)cc2)nc(NC2CC2)n1	62	86	11	/
O=C(CCCN1C(=O)S/C(=C/c2ccccc2)C1=S)N1CCOCC1	101	90	-41	/
COc1ccc(C2=Nn3cnnc3SC2)cc1OC	105	94	-36	/
Cc1oc(-c2ccc(C(=O)NCc3cccc(F)c3)cc2)nc1COc1ccccc1	98	106	/	103
CCc1c(C)nc2n(c1=O)C(CS(=O)(=O)c1ccc3ccccc3c1)CS2 (stereo not drawn)	100	75	-28	100
C=CCOc1ccc(CNCc2ccco2)cc1OC	94	93	9	101
COc1ccc(CCN2CCCn3c2nc2c3c(=O)n(CC(N)=O)c(=O)n2C)cc1OC	117	96	21	111
CC(C)c1ccccc1NN	98	81	1	/
COc1cc(/C=C2\SC(=S)N(NC(=O)c3ccccc3Br)C2=O)cc(OC)c1OC	/	/	-23	101
CC(C)Cn1cnc2nc(CSc3ccccc3NC(=O)Nc3cccc(Cl)c3)cc(=O)n21	/	/	-7	101

Some of the entries above, reformatted:
Values run as follows: Sa growth 42C	Sa growth 42C second temp	HCMV UL50-53 inh	GIV-Gai inh
CCOC(=O)C1=C(N)OC2=C(C(=O)CC(c3ccccc3)C2)C1c1ccc(Cl)c([N+](=O)[O-])c1 (stereo not drawn)
→ /	/	-6	106
CC(OC(=O)c1ccccc1NCc1ccco1)C(=O)Nc1ccc2c(c1)OCO2 (stereo not drawn)
→ 88	99	-31	/
O=C(Cn1nnc(-c2cccs2)n1)N1CCCC1c1ccc2c(c1)OCCCO2 (stereo not drawn)
→ 89	93	2	/

Further results.
SMILES	Sa growth 42C	Sa growth 42C second temp	HCMV UL50-53 inh	GIV-Gai inh
CNc1sc(C(=O)c2cccs2)c(N)c1-c1nc2ccccc2s1	101	44	-15	/
Cc1c(CNC(=O)c2cc(-c3ccc4c(c3)OCO4)nc3ccccc23)cnn1C	/	/	-18	102
COc1nc2c(c(=O)n(C)c(=O)n2C)n1C	86	91	-16	/
O=C(O)c1ccc(S(=O)(=O)c2ccc3c(c2)C(=O)N(C2CCCCC2)C3=O)cc1	97	88	-124	96
C=CCn1c2ccccc2n2cc(-c3ccccc3)nc12	23	18	/	104
CC1=CC(C)(C)N(C(C)C)C(=O)N1c1ccc(C)cc1	93	91	/	97
CCOC(=O)C1CCCN(c2c(C(=O)c3ccccc3)cnc3ccccc23)C1 (stereo not drawn)	99	81	2	103
CN(CC(=O)Nc1ccc(OC(F)(F)F)cc1)C(=O)c1ccc(N2CCCC2=O)cc1	86	93	-6	/
COc1cccc(N2CCN(C(=O)c3ccc(C)c(NC(=O)c4nsc5ccccc45)c3)CC2)c1	116	81	/	103
CC(C)C1OC(N)=NC1=O (stereo not drawn)	95	95	-35	/
COc1ccc(S(=O)(=O)N2CCC(c3nnnn3-c3ccccc3)CC2)cc1OC	98	96	0	95
Cc1ccc(-c2nc(CS(=O)(=O)CC(=O)N3CCN(c4cccc(C)c4C)CC3)c(C)o2)cc1	90	105	2	109
O=C1CCC/C(=N/NC(=O)c2cc(NS(=O)(=O)c3cccs3)cc(NS(=O)(=O)c3cccs3)c2)C1	87	90	-12	/
Nc1nc(N)nc(SCC(=O)N(C2=CCCCC2)C2CC2)n1	74	94	-24	/
COc1ccc(Cl)cc1NC(=O)CCn1c(=O)oc2ccccc21	108	88	-16	108
CC1CCC(C(C)C)C(=O)/C1=C\c1ccc(NC(=O)CCC(=O)O)cc1 (stereo not drawn)	95	55	/	99
Cc1ccc(N2C(=O)CC(Sc3nc4c(cc3C#N)CCC4)C2=O)cc1 (stereo not drawn)	/	/	-2	100
COC(=O)c1ccc(C2C3=C(CC(c4ccc(Cl)cc4)CC3=O)Nc3onc(C)c32)cc1 (stereo not drawn)	/	/	-6	105
O=C1CCCN1C(=O)CSc1nc(-c2ccccc2)c(-c2ccccc2)o1	89	79	-17	/
c1coc(CNc2nc(C34CC5CC(CC(C5)C3)C4)cs2)c1	68	74	-11	/
Cc1ccc(C)c(NC(=O)C2CCN(c3nn4c(=O)cc(C)nc4s3)CC2)c1	92	82	-30	103
NC(N)=NC(=O)c1nc(Cl)c(N2CCCCCC2)nc1N	/	/	-120	106
CN1CCN(C(=O)C2CC(c3ccc(F)cc3)=NO2)CC1 (stereo not drawn)	/	/	6	95
O=C(Cc1coc2ccc3ccccc3c12)OCC(=O)c1cc2c3c(c1)CC(=O)N3CCC2	82	68	-19	/
O=C(NCc1ccc(Cl)cc1)c1ccc(-n2nnc3cccnc32)cc1	/	/	-31	110
Cc1ccc2[nH]cc(CCNC(=O)CN3C(=O)c4cccnc4Sc4ccccc43)c2c1	/	/	-19	106
COc1ccc(C2C(C(=O)N3CCOCC3)CCC(=O)N2c2ccc(OC)cc2)cc1 (stereo not drawn)	100	88	/	99
O=C(Nc1ccc(CN2CCS(=O)(=O)CC2)cc1)c1ccco1	85	87	-34	105
CC(=O)N1CCc2c(C)cc(Cl)cc21	95	91	2&4	110&112
Cc1ccc(S(=O)(=O)N2C(=O)CCC2C(=O)N2CCCC2)cc1C (stereo not drawn)	/	/	8	106
Cc1oc(-c2ccccc2F)nc1CSCC(=O)NCc1ccccc1	101	83	-13	103
CCCC(=O)Nc1cc(=O)n(C)c(=O)n1C	105	79	-24	98
Clc1ccc(-c2ccc(CNCc3ccncc3)o2)c(Cl)c1	/	/	-30	111
CCCCSc1nc2c(c(=O)[nH]1)C(c1sccc1C)C(C(=O)OC(C)C)=C(C)N2 (stereo not drawn)	/	/	-26	96
